# RN4220 kill = kills Staphylococcus aureus RN4220 | S. aureus RN4220 growth, OD600, 16 h | inhibition, % (test concentration not listed) | hit rate 0.33% among 330,000 | AID 1259311;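 active = z-score of -3 or lower and OD600 up to 0.18 on both plates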;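 note: plate controls were untreated cells for no effect and reference antibiotic for full effect; stock transfer was 100 nL into about 80 µL; one replicate is shown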
# Sa ugtP lethal = growth inhibition of S. aureus ugtP deletion strain; S. aureus RN4220 ugtP deletion, OD600 growth, 16 h; some inactives read as strong as hits; growth inhibition, % (test concentration not listed); hit rate 0.54% among 330,000; AID 1259309;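 active = z-score under -3 and OD600 up to 0.15 on both plates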;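 note: plate controls were untreated wells for no effect and antibiotic for full effect; wells of about 80 µL received 100 nL stock; the first replicate is given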
# BJeLR viability = BJeLR cell viability loss | BJeLR (HRASV12) viability, CellTiter-Glo ATP luminescence, 48 h; reference of the scale not given here | inhibition, % (concentration not given with the values) | hit rate 0.17% among 300,000 | AID 1554;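 active = replicate mean above 50%; inconclusive = above 50% but judged a plate artefact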;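 note: 50 nL library stock added to about 25 µL; numbers are from one replicate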
# Mtb hypoxia rep = Mtb hypoxia fluorescent reporter inhibition; M. tuberculosis hypoxia-regulated fluorescent reporter, fluorescence; fluorescence inhibition, % (test concentration not listed); hit rate 0.1% among 300,000; AID 1159583;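 active = 35 to 45% if threefold the growth effect, above 45% if 1.5-fold the growth effect; inactive = the rest, general growth blockers included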;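 note: wells of about 50 µL received 100 nL stock; 0% = vehicle wells and 100% = reference inhibitor wells; whole bacteria with a GFP reporter of the hypoxia response; strong numbers were not always called active; many hits fall short of the cut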
# Autofluor counter = compound fluorescence in toxin protease inhibitor counterscreen. compound autofluorescence counterscreen, microsphere flow cytometry; hits give high values. fluorescence intensity (no concentration beside the values). hit rate 3.1% among 360,000;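 active = at least 3 SD above the mean of all compounds, about 16000 in these data; inconclusive = too few beads counted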;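 note: 100 nL of 1 mM stock went into each well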
# PrP 5UTR inh = inhibition of PrP 5' UTR reporter expression; cell-based PrP 5' UTR mRNA reporter, plate reader; inhibition, % (concentration not given with the values); hit rate 0.35% among 340,000; AID 488862;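 active = every replicate at 50% or more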;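 note: 0 = median of the neutral control wells; tested in H4 reporter cells; numbers are from one replicate; inactives centre near -14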
# Mtb hypoxia rep growth = further read-out of Mtb hypoxia rep, marked with its call; growth inhibition, %; measured here: M. tuberculosis growth (absorbance);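 0% = vehicle and 100% = reference antibiotic; read after six days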
# An asterisk follows results filed as active; ? = inconclusive; nt = no result given; & = joins results of further samples.
SMILES,RN4220 kill,Sa ugtP lethal,BJeLR viability,Mtb hypoxia rep,Mtb hypoxia rep growth,Autofluor counter,PrP 5UTR inh
CC1CCCN(S(=O)(=O)c2ccc(C(=O)Nc3ccccc3-c3nc4ccccc4[nH]3)cc2)C1 (configuration not stated),1.6,-17,-8,8,3,2368,3
COc1ccc(N2CCN(c3ccc(C(N)=O)cc3[N+](=O)[O-])CC2)cc1,-0.8,3,8,8,1,3121,0
Cc1c(C(=O)Nc2c3c(nn2C(C)(C)C)CS(=O)(=O)C3)cccc1[N+](=O)[O-],1.5,1,-1,7,-1,5908,-17
Cc1ccc(C(=O)Cn2cccn2)cc1,0.7,3,0,2,-3,4207,-10
O=C(c1cnn2c1NC(c1ccc(Br)cc1)CC2C(F)(F)F)N1CCN(C23CC4CC(CC(C4)C2)C3)CC1 (configuration not stated),-2.3,-33,-14,-9,7,9497,-1
CC(=O)c1[nH]c(C)c(C(C)=O)c1C,5.3,15,-4,7,2,6432,-2
C=CCN1C=C2C(=O)C(C)(OC(=O)CCc3ccccc3)C(=O)C=C2C=C1c1ccc(C#N)cc1 (configuration not stated),5.0,2,-12,-6,-1,3597,21
CCN1C(=O)NC(c2ccc(Br)cc2)C(C(=O)OC)=C1C (configuration not stated),5.6&4.0,3&7,nt,8&4,13&2,nt,nt
O=C(CCCN1C(=O)/C(=C/c2ccccc2Cl)SC1=S)N1CCOCC1,3.4,8,-2,12,3,5678,-56
CN(C)S(=O)(=O)c1ccc(NC(=O)C2CCCN(C(=O)c3ccc(Cl)cc3)C2)cc1 (configuration not stated),0.7,4,-8,8,0,2046,-6
COc1ccc(NC(=O)CCNC(=O)Cn2ccc3ccccc3c2=O)cc1OC,-0.4,7,-2,4,-6,3384,-20
Cc1ccccc1C(=O)Nc1ccc2c(c1)OCO2,9.9,4,4,-8,2,2889,-26
COc1ccc(-c2cc(C3CCN(c4ncccc4[N+](=O)[O-])CC3)[nH]n2)cc1,-11,100*,-1,nt,nt,3769,-17
CC(C)CCNC(=O)C1CCN(S(=O)(=O)c2ccc3c(c2)CC(C)N3C(=O)C2CCC2)CC1 (configuration not stated),-1.7,8,2,5,-9,5052,-13
COc1cc(OC)cc(C(=O)NC(C(=O)Nc2ccc3c(c2)OCCO3)C(C)C)c1 (configuration not stated),2.4,-2,nt,-12,-1,?,nt
O=C(/C=C/c1cccc([N+](=O)[O-])c1)N1CCN(c2ccccn2)CC1,-1.1,4,8,10,3,5362,-11
O=C(c1ccccn1)N1CCCC(N2CCN(c3ccc(F)cc3)CC2)C1 (configuration not stated),1.8,5,5,15,3,5659,-11
Cc1ccc2ncccc2c1NS(=O)(=O)c1ccccc1,8.0,-10,-3,8,3,8995,-25
Cc1n[nH]c(C)c1S(=O)(=O)N1CCCC(C(=O)Nc2ccc3c(c2)OCCO3)C1 (configuration not stated),6.6,2,1,6,16,nt,nt
Nc1c(N(CCC2=CCCCC2)C(=O)c2ccco2)c(=O)[nH]c(=O)n1Cc1ccccc1,4.7,5,3,7,2,nt,0
CCc1nc(SCC(=O)O)c(C#N)cc1C,12,26,-6,-2,4,6591,-96
Cc1cccc(NC(=O)CSc2nc(=O)n3ccccc3n2)c1C,3.8,11,7,-2,1,nt,-2
CC(OC(=O)/C=C/c1ccccc1Cl)C(=O)NC1CCCCC1C (configuration not stated),5.7,7,-11,0,-5,?,7
CCc1ccc(NC(=S)N2CCC(NC(=O)c3ccccc3OC)CC2)cc1,-0.4,7,-5,15,11,3528,-36
CCCSc1nnc(CSc2nc(C)cc(C)n2)n1C,1.7,3,-1,11,-7,3338,-11
SMILES,RN4220 kill,Sa ugtP lethal,BJeLR viability,Mtb hypoxia rep,Mtb hypoxia rep growth,Autofluor counter,PrP 5UTR inh
CCOC(=O)C(CSCC(=O)c1ccc(Cl)cc1Cl)NC(=O)OC(C)(C)C (configuration not stated),5.8,7,5,nt,nt,4924,-13
COc1cc(S(=O)(=O)NCc2cccnc2)c(OC)cc1Br,0.0,4,-7,0,-8,nt,-6
CC(=O)Nc1cccc(C(=O)NC(C)c2ccc(-n3ccnc3)cc2)c1 (configuration not stated),-2.4,1,13,3,1,3914,-10
CC(C)[C@H](NC(=O)NCc1ccc(F)cc1)C(=O)O,0.6,0,-4,3,1,4616,4
Cc1ccccc1/C=N/Nc1nc2ccccc2[nH]1,nt,nt,10,nt,nt,3584,-44
O=C(N/N=C\c1cccnc1)c1ccc(Br)s1,nt,nt,8,nt,nt,?,-13
Cc1ccc(-n2cccc2/C=N/n2cnnc2)cc1Cl,nt,nt,2,nt,nt,3380,2
O=C(CNC(=O)c1ccccc1F)NCCOc1cccc(Cl)c1Cl,3.9,10,8,11,6,7283,-10
Cc1ccc(NC(=O)CSc2nccn2Cc2ccccc2)cc1C,-1.2,19,-2,7,9,3256,-35
Nc1nnc(CCS(=O)(=O)c2ccc(Cl)cc2)s1,3.0,4,-3,7,1,10301,0
COc1cc(CN2CCCC(CO)(Cc3ccccc3F)C2)ccc1O (configuration not stated),2.1,6,-1,3,3,3900,-22
COc1ccc(Cc2nnc(N=Nc3c(O)[nH]c4ccc(Br)cc34)[nH]c2=O)cc1,3.4,3,-2,6,12,2060,-1
COC(=O)C1CCN(C(=O)COC(=O)C2CCN(S(=O)(=O)c3ccc4c(c3)OCCO4)CC2)CC1,-0.7,6,4,6,7,5465,-16
Cc1nn(Cc2noc(C(=O)NCc3ccc(F)cc3)n2)c(C)c1Br,-2.7,1,-12,13,1,4035,-19
CC(NC(=O)C(=O)N/N=C\c1ccc([N+](=O)[O-])cc1)c1ccccc1 (configuration not stated),nt,nt,0,nt,nt,5254,-80
Clc1cccc(C2CCN(Cc3nc(CC4CC4)no3)C2)c1 (configuration not stated),4.3,8,9,6,15,4942,-22
Cc1ccc(S(=O)(=O)/N=c2\sccn2C)cc1,nt,nt,-1,nt,nt,4777,-4
O=C1c2ccccc2C(=O)c2cc(N3CCCCC3)ccc21,6.6,1,nt,5,5,8037,46
Cc1nn(-c2ccccc2)c2nc(-c3ccco3)cc(C(=O)O)c12,5.4,-11,-2,-1,2,3460,2
CCCCNC(=O)c1ccc(NS(=O)(=O)c2ccccc2)cc1,3.7,8,-5,nt,nt,2432,-18
CN(C)c1ccc(-c2nc3ccccc3n2C)cc1,-0.5,-3,25,4,4,7908,3
Cc1ccc(NC(=S)NNC(=O)C2CC2c2ccc(C)cc2)cc1 (configuration not stated),-3.6,10,-3,-7,-2,nt,-9
Cc1c(NC(=O)COC(=O)COc2ccc(Nc3ccccc3)cc2)c(=O)n(-c2ccccc2)n1C,-4.4,13,nt,13,6,2389,-14
COc1cc2c(cc1OC)CN(C(=S)Nc1ccc(OC(F)F)cc1)CC2,2.0,6,nt,-1,14,3280,-13
COc1ccc(N2CCN(C(=O)c3ccc(C)c(NC(=O)C4=C(C)OCCS4)c3)CC2)cc1,0.4,11,-16,-3,-6,4254,-22
SMILES,RN4220 kill,Sa ugtP lethal,BJeLR viability,Mtb hypoxia rep,Mtb hypoxia rep growth,Autofluor counter,PrP 5UTR inh
CCc1ccc(C(=O)N/N=C(\C)c2ccncc2)s1,nt,nt,6,nt,nt,6008,-45
COc1ccccc1OCC(=O)Nc1cc(C)ccc1NC(=O)c1ccco1,4.5,9,0,3,-1,4834,-30
CCc1cccc2c(C(=O)COC(=O)c3ccc(O)cc3)c[nH]c12,0.7,-29,-1,-7,5,8987,-42
COC(=O)c1ccc(C(=O)NC2CCCc3c2cnn3-c2ccccc2F)nc1 (configuration not stated),2.7,5,2,13,10,4560,-28
CC(C)Oc1ccc(NC(=O)c2ccncc2)cc1,nt,nt,4,nt,nt,4123,-29
Cc1ccc2nc(NC(=O)/C=C/c3ccc4c(c3)OCO4)sc2c1,9.0,1,-4,6,2,7216,-3
Cc1c(Cl)cnc(NC(=O)COC(=O)CCS(=O)(=O)c2ccccc2)c1Cl,6.6,10,-7,nt,nt,3504,-20
COc1ccccc1CCNC(=O)C1CCN(C(=O)/C=C/c2ccccc2)CC1,1.3,2,-9,9,5,3734,-23
C/C(=N\NC(=O)CCc1ccc(S(=O)(=O)N2CCOCC2)cc1)c1ccc(OC(F)F)cc1,nt,nt,-7,nt,nt,3454,-28
COc1ccccc1NC(=O)Cn1c2ccc(F)cc2c2nc3n(c(=O)c21)CCS3,1.3,-4,-5,12,6,3762,-14
COc1ccc(NC(=O)Nc2cccc(OC)c2)cc1,3.8,13,-2,14,5,6556,-86
COCCN(C(=S)Nc1cc(C)ccc1C)C(C)c1cccnc1 (configuration not stated),6.1,-2,-2,8,3,2430,-18
O=C(c1ccc(OC2CCN(CCO)CC2)cc1)N1CCCC1,0.2,5,-2,2,-1,4366,-16
O=C(c1cccs1)N1CCOCC1,5.9,2,-4,-4,-1,3282,-16
CCOC(=O)Cn1nc(-c2ccccc2)nc1-c1ccccc1,3.0,8,-13,13,-1,6307,-19
Cc1ccsc1C(=O)N(CC(C)C)c1c(N)n(Cc2ccccc2)c(=O)[nH]c1=O,-0.2,0,10,-1,-1,5592,-12
COc1ccc(S(=O)(=O)NNC(=O)Nc2ccc(C)cc2C)c(OC)c1,1.2,3,6,3,1,6131,-20
Cc1noc(C)c1C(=O)Nc1sc2c(c1C(N)=O)CCCCC2,3.0,-1,7,-3,8,22480*,6
CCOc1ccc(CNC(=O)Cn2nc(C)c3c(C)n(-c4ccc(C)cc4)nc3c2=O)cc1,4.4,7,2,2,9,5676,-12
O=C(NCc1ccccn1)Nc1ccc(F)cc1,0.0,-3,5,nt,nt,4233,-9
COc1ccc(S(=O)(=O)NCC(=O)NCc2cc(=O)n(C)c(=O)n2C)cc1C,5.2,5,6,17,12,4937,2
Oc1ccccc1Oc1c(F)c(F)nc(N2CCCC2)c1F,17,-25,-2,1,7,2178,-16
Cc1ccc2nc(Cl)c(/C=N/Nc3nc(C)cc(C)n3)c(=O)n2c1,nt,nt,-6,nt,nt,10644,-14
Cc1ccc(CN(CCO)CCO)cc1,7.6,3,12,7,1,4040,-12
Cc1cccc(N2CCN(C3=NC(=O)C(=C4CCCCC4)S3)CC2)c1,4.9,-11,-1,16,16,5937,-10

# In the list so far, these contain bromine.
SMILES,RN4220 kill,Sa ugtP lethal,BJeLR viability,Mtb hypoxia rep,Mtb hypoxia rep growth,Autofluor counter,PrP 5UTR inh
O=C(c1cnn2c1NC(c1ccc(Br)cc1)CC2C(F)(F)F)N1CCN(C23CC4CC(CC(C4)C2)C3)CC1 (configuration not stated),-2.3,-33,-14,-9,7,9497,-1
CCN1C(=O)NC(c2ccc(Br)cc2)C(C(=O)OC)=C1C (configuration not stated),5.6&4.0,3&7,nt,8&4,13&2,nt,nt
COc1cc(S(=O)(=O)NCc2cccnc2)c(OC)cc1Br,0.0,4,-7,0,-8,nt,-6
O=C(N/N=C\c1cccnc1)c1ccc(Br)s1,nt,nt,8,nt,nt,?,-13
COc1ccc(Cc2nnc(N=Nc3c(O)[nH]c4ccc(Br)cc34)[nH]c2=O)cc1,3.4,3,-2,6,12,2060,-1
Cc1nn(Cc2noc(C(=O)NCc3ccc(F)cc3)n2)c(C)c1Br,-2.7,1,-12,13,1,4035,-19

# (list continues)
SMILES,RN4220 kill,Sa ugtP lethal,BJeLR viability,Mtb hypoxia rep,Mtb hypoxia rep growth,Autofluor counter,PrP 5UTR inh
Cc1cc(=O)oc2cc(OCC(=O)NCCN3CCOCC3)c(Cl)cc12,0.0,-2,1,-4,-1,5178,-21
CCOc1ccc(S(=O)(=O)Nc2nc3ccccc3nc2Nc2ccc(N3CCOCC3)cc2)cc1,9.0,0,-11,15,3,2266,-2
CC(C)NC(=O)CSc1nc(N)c(NC(=O)c2ccco2)c(=O)[nH]1,11,1,5,4,4,2537,-13
COc1cc(/C=N/Nc2snc(SC)c2C#N)cc(OC)c1OC,nt,nt,21,nt,nt,3184,-5
CCCCCn1c(SCC(=O)OCC)nc2cc(C(=O)NCc3ccco3)ccc2c1=O,-3.5,-4,-7,-5,7,21498*,-4
Fc1ccc(CNC(=S)NC2CCCC2)cc1,1.5,6,7,17,19,2715,-1
Nc1cc(C(=O)OCC(=O)Nc2cccc(S(=O)(=O)N3CCOCC3)c2)ccc1Cl,7.3,3,nt,10,5,3931,-13
CCOc1ccc(S(=O)(=O)N(CC(=O)Nc2cccnc2)c2ccc(F)cc2)cc1,6.2,2,10,10,5,6562,-15
O=C(COc1ccc2ccccc2c1)Nc1ccc(Cc2ccncc2)cc1,-4.9,7,1,0,0,7331,-11
CCN(CC)CCNC(=S)Nc1ccc(Cl)cc1,1.1,-1,-3,3,3,2132,-8

# Screening results from PubChem BioAssay.
